NPYLR7 ag = activates Aedes aegypti NPYLR7 receptor; HEK293T NPYLR7/Galpha15, GCaMP6s calcium fluorescence; activation, % at 10 µM; 270,000 tested, 0.15% active; in the data active = activation above about 40%;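 note: 0% = vehicle and 100% = reference agonist at the receptor; some compounds past the cut are filed as inactive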
NPYLR7 ag max-min = further read-out of NPYLR7 ag, marked with its call; activation, %; measured here: Max-Min RFU normalised activation; some inactives read as strong as hits;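 span of the calcium signal over five minutes; 0% = vehicle and 100% = native peptide agonist; compound fluorescence can raise it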
Numbers without * were called inactive; & = joins results of further samples. The list is partial (hit frequency here may not be typical).

SMILES	NPYLR7 ag	NPYLR7 ag max-min
Cc1nn(CC(=O)N2CCCC(Nc3ccc(C(C)C)cc3)C2)c(=O)c2ccccc12 (stereo not drawn)	3&-3	-1&-5
CN(CCC#N)C(=S)NC1CCCCC1	3	3
CC(C)C(=O)Nc1ccc(N(C)C)c(CN(CC2CCCO2)C(=O)c2cccc(F)c2)c1 (stereo not drawn)	6	9
CCOC(=O)NNC(=O)COCc1nc2ccccc2s1	0	-1
CNC(=O)[C@@H]1C[C@@H](N)CN1C(=O)c1cc(OC)nc2ccccc12	-3	-5
Cc1cc2c(c(=O)[nH]1)C(=O)O/C2=C/c1ccc2c(c1)OCO2	4	4
O=C1NCC2(CCCN(C(=O)c3n[nH]c4c3CCC4)C2)O1 (stereo not drawn)	-7	-10
Cc1ccc(C)c(NC(=O)CC(=O)NCc2cc(-c3ccccn3)no2)c1	13	-3
COc1ccc(OCCNC(=O)C2(C)CCN2CCc2ccccc2)cc1 (stereo not drawn)	0	-3
O=C(Nc1ccc(N2CCCCC2)c(C(=O)NCC2CCCO2)c1)c1ccc(Cl)c([N+](=O)[O-])c1 (stereo not drawn)	-5	-1
Cc1cc(-c2csc(NC3CC3)n2)c(C)n1C1CC1	-30	-31
Cc1cc(C)nc(N=C(NC(=O)c2ccc(F)cc2)Nc2ccccc2)n1	-1	-7
COc1ccc2ccccc2c1/C=N\N1C(=O)C2C(C1=O)C1C=CC2C12CC2 (stereo not drawn)	-3	5
CN(C(=O)CSc1nnnn1C1CC1)c1ccccc1	-6	-8
CN1CCN(CCN2C(=O)c3ccccc3C2=O)CC1	4	2

Quoted from above for reference:
SMILES	NPYLR7 ag	NPYLR7 ag max-min
Cc1nn(CC(=O)N2CCCC(Nc3ccc(C(C)C)cc3)C2)c(=O)c2ccccc12 (stereo not drawn)	3&-3	-1&-5
CN(CCC#N)C(=S)NC1CCCCC1	3	3
CC(C)C(=O)Nc1ccc(N(C)C)c(CN(CC2CCCO2)C(=O)c2cccc(F)c2)c1 (stereo not drawn)	6	9
CCOC(=O)NNC(=O)COCc1nc2ccccc2s1	0	-1
CNC(=O)[C@@H]1C[C@@H](N)CN1C(=O)c1cc(OC)nc2ccccc12	-3	-5
Cc1cc2c(c(=O)[nH]1)C(=O)O/C2=C/c1ccc2c(c1)OCO2	4	4
O=C1NCC2(CCCN(C(=O)c3n[nH]c4c3CCC4)C2)O1 (stereo not drawn)	-7	-10
Cc1ccc(C)c(NC(=O)CC(=O)NCc2cc(-c3ccccn3)no2)c1	13	-3
COc1ccc(OCCNC(=O)C2(C)CCN2CCc2ccccc2)cc1 (stereo not drawn)	0	-3
O=C(Nc1ccc(N2CCCCC2)c(C(=O)NCC2CCCO2)c1)c1ccc(Cl)c([N+](=O)[O-])c1 (stereo not drawn)	-5	-1
Cc1cc(-c2csc(NC3CC3)n2)c(C)n1C1CC1	-30	-31
Cc1cc(C)nc(N=C(NC(=O)c2ccc(F)cc2)Nc2ccccc2)n1	-1	-7
COc1ccc2ccccc2c1/C=N\N1C(=O)C2C(C1=O)C1C=CC2C12CC2 (stereo not drawn)	-3	5
CN(C(=O)CSc1nnnn1C1CC1)c1ccccc1	-6	-8

Carrying on:
SMILES	NPYLR7 ag	NPYLR7 ag max-min
CCc1noc(C)c1C(=O)Nc1cccc(C(C)=O)c1	-1	-2
O=C(NCCCc1ccccc1)c1sc2cc(F)ccc2c1Cl	23	27
Cc1cc(C(=O)N2CCc3c([nH]c4ccccc34)C2c2cccc(C(F)(F)F)c2)n(C)n1 (stereo not drawn)	-3	-7
O=C1COc2ccc(C(=O)COc3cccc(C(F)(F)F)c3)cc2N1	2	0
Cc1ccc(C)c(C=CC(=O)c2c(O)cc(C)oc2=O)c1	0	6
CCOC(=O)C1CCN(C(=O)c2ccc(CSc3nc(Cl)cc(N4CCC(Cc5ccccc5)CC4)n3)cc2)CC1	-5	-1
Cc1ccc(SC2CCN(C(=O)c3cn(Cc4ccccc4F)nn3)CC2)cc1	16	9
COc1ccc(-c2nc(CCNC(=O)c3cnc(C)cn3)co2)cc1	8	6
COc1ccc(-c2cnc3ncnn3c2N2CCN(C(=O)c3cc(F)ccc3F)CC2)cc1OC	3	-2
CCc1ncc(C(=O)N2CCCN(C(=O)c3ccccc3)CC2)[nH]1	-6	-6
COc1ccc(CNC(=O)c2ccc3nc(C)c(N(C)CC4CCCCC4)n3c2)cc1	-6	-8
Cc1cccc(OCC2=NN3C(=N)/C(=C\c4ccc(Br)o4)C(=O)N=C3S2)c1	-2	-2
CC1(C)CN(C(=O)CCc2ccccc2)CC(=O)N([C@@H]2CCCC[C@H]2O)C1	-1	10
COCCn1c(SCc2ccccc2F)nc2ncccc2c1=O	4	4
CCOc1ccccc1NC(=O)N(CCOC)CC(=O)N(Cc1ccc2c(c1)OCO2)Cc1ccco1	7	5
Cc1ccc(C2=NN(C(=O)CN3CCc4ccccc4C3)C(c3cccc(F)c3)C2)c(C)c1 (stereo not drawn)	4	6
COC(=O)CN1CC2(CCN(Cc3cccc(OC(F)(F)F)c3)CC2)OC1=O	1	19
CCOP(=O)(CCCCNC(=O)c1ccc2c(c1)CCO2)OCC	-4	-14
O=C1CN(CC(=O)N2CCC(c3cc(Cc4ccccc4)[nH]n3)CC2)C(=O)N1	1	1
CNC(=O)Cn1nc(C)c2cnn(-c3ccccc3C)c2c1=O	-6	-6
COc1ccc(CN2C3CCC2CC(NC(=O)c2ccco2)C3)c(OC)c1 (stereo not drawn)	2	9
CCOC(=O)CCC(=O)Nc1c(-c2ccc(C)cc2)nc2cc(C)ccn12	-2	4
COCCN1C(=O)C(=Cc2cccc(OC)c2OC(F)F)SC1=S	1	-1
CCOC(=O)C(c1cccc(OC)c1)C1C=CC(NC(=O)c2cc(Cl)ccc2F)C1 (stereo not drawn)	3	0
O=C(NNc1nc(-c2ccccc2)c2cc(Br)ccc2n1)c1ccc(Cl)cc1Cl	8	11
O=c1cc(CN2CCCCC2c2ccc(C(F)(F)F)cc2)occ1O (stereo not drawn)	-19	-21
COc1ccc(-c2ccc(SCC(=O)NC3CCCCC3)nn2)cc1OC	-5	-6
COc1ccc(C(=O)NCCC2CN(C)CCO2)c(OC)n1 (stereo not drawn)	-2	-7
Cc1noc(C)c1CN1CCN2C(C(=O)Nc3ccc(F)c(Cl)c3)=COC2=NC1=O	2	2
CCn1cc(NC(=O)c2cccc(CS(C)=O)c2)ccc1=O (stereo not drawn)	-13	-12
CN(Cc1ccccc1)Cc1cnc(Cl)s1	2	0
O=C1NCCN(Cc2cccc(C(F)(F)F)c2)C1CC(=O)N1CCCCCC1 (stereo not drawn)	11	-1
COc1ccc(-n2c(Cc3ccccc3)nnc2SCc2ccc(C(=O)O)cc2)cc1	-1	-6
Cc1ccsc1C(CNC(=O)c1cc(=O)c2ccccc2[nH]1)N(C)C (stereo not drawn)	10	8
Cc1ccc(F)cc1Nc1nnc(-c2cc3c(ccc4ccccc43)oc2=O)s1	-8	-12
CCSc1nnc(NC(=O)CSc2nnc(CNC(=O)c3ccco3)n2-c2ccc(F)cc2)s1	-7	-5
c1ccc(-c2cnc(CSc3ncn[nH]3)o2)cc1	-3	-4
Cc1ccccc1OCCSc1nc2ccccc2n1CC(=O)N1CCOCC1	2	9
CSCC(=O)N1CCCC(N2CCN(c3cccc(Cl)c3)CC2)C1 (stereo not drawn)	3	0
COCCNS(=O)(=O)c1ccc(OC)c(N2CCN(C(=O)C3(c4ccc(Cl)cc4)CCCC3)CC2)c1	22	16
CCCc1ccc(S(=O)(=O)NCc2cccnc2)cc1	-1	-2
COc1cc(NC(=O)c2cc(NCCN3CCOCC3)ncn2)cc(OC)c1OC	-1	-4
CC(C)(C)c1csc(NC(=O)CC2OCCc3ccsc32)n1 (stereo not drawn)	-22	-25
Cc1cn2c3c(=O)n(CCc4ccccc4)c(=O)n(C)c3nc2n1CCOCCO	-2	4
Cc1cccn2c(=O)cc(CN(Cc3ccco3)C3CCCC3)nc12	0	-4
Cc1nc2ncnn2c(N2CC[C@H]3CCCC[C@@H]3C2)c1Cc1ccccc1	-3	-16
Cc1ccccc1C(NC(=O)C1CCN(Cc2ccccc2)CC1)c1ccsc1 (stereo not drawn)	10	0
COc1cc(CN(CC(O)COc2ccc(Cl)cc2)C2CC2)cc(OC)c1 (stereo not drawn)	23	34
O=c1c2cnc(N3CCCC3)nc2ccn1-c1ccccc1	5	9
COc1ccc(C(O)(c2ccc(OC)cc2)c2ccc(CN(Cc3sccc3C)C3CC3)o2)cc1	-1	4
COCCNC(=O)c1ccccc1N1CCC(NC(=O)COc2ccc(Cl)cc2)CC1	-4	3
Cc1cc(C)n(C)c(=O)c1C(=O)NC(C)c1ccc(-n2cncn2)cc1 (stereo not drawn)	12	-3
Cc1csc(NC(=O)c2cn(C)cc3c(=O)n(-c4ccccc4)nc2-3)n1	4	2
CCS(=O)(=O)N1CCC(C(=O)n2ncc3ccc(N)cc32)CC1	-1	-1
Cc1nc(C)c(C(=O)NCCn2nc(-c3ccc(Cl)cc3)ccc2=O)s1	1	0
CC(=O)Nc1ccc(NC(=O)C(C)OC(=O)Cc2cccc(F)c2)cc1 (stereo not drawn)	7	-1
CCOC(=O)CCC(=O)N[C@H](Cc1ccccc1)C(=O)N1CCC(C(=O)Nc2ccc(OC)cc2)CC1	-8	1
OCc1cc(-c2ccc(CN3CCCC3)cn2)ccc1F	5	6
Cc1ccc(N(C(=O)NC(=O)Nc2cccc([N+](=O)[O-])c2)S(=O)(=O)c2ccc(C)cc2)cc1	-3	-6
Cc1noc(C)c1CCCNC(=O)c1ccc(-c2cc3ccccc3o2)nc1	2	-1

The results go on.
SMILES	NPYLR7 ag	NPYLR7 ag max-min
Cc1cc(Cl)ccc1C(=O)C1CCCN(C(=O)CCCc2cccs2)C1 (stereo not drawn)	3	-13
CC(c1cccnc1)N(C)C(=O)NC(C)C(C)(C)c1ccccc1 (stereo not drawn)	3	3
CC(c1ccc(-c2ccc(C(=O)N3CCCC3)o2)cc1)N1CCOCC1 (stereo not drawn)	26	16
COc1ccccc1CCC(=O)Nc1ccc2c(c1)CN(Cc1cccc3nonc13)CC2	7	5
Cc1oc2nc[nH]c(=O)c2c1C(=O)N1CCN(Cc2ccsc2)CC1	-1	-2
O=C(NCc1cccc(C(F)(F)F)c1)c1cc(-c2ccccc2F)nc2cc(-c3ccc(Cl)cc3)nn12	20	23
O=C(O)Cn1[nH]c(=O)ccc1=O	-3	-3
Cc1nc2sc(C)c(C)c2c(=O)o1	3	1
C=C(C)Cn1c(=O)c2c(nc3n(-c4ccc(C)c(C)c4)c(C)cn23)n(C)c1=O	9	13
CC1CCN(C(=O)CC2C=CCC2)c2cc(C(F)(F)F)ccc2S1 (stereo not drawn)	-1	-2
COc1cc(Br)cc(C=Nc2ccc(C)cn2)c1O	2	-7
CCS(=O)(=O)c1ccc2oc(-c3cc([N+](=O)[O-])ccc3OS(=O)(=O)c3ccc(C)cc3)nc2c1	15	11
O=C(c1cc(-c2cccs2)nn1-c1ccccc1Cl)N1CCN(c2cccc(C(F)(F)F)c2)CC1	-1	11
Cc1cc(CC(C)Nc2nccc(C3CCCC3)n2)n[nH]1 (stereo not drawn)	22	13
O=C(c1ccccc1)N1CCN(C2CCc3ccc(F)cc32)CC1 (stereo not drawn)	10	6
CCCN(CC(=O)N1CC(=O)N(c2cccc(C)c2)C1)C(=O)NC12CC3CC(CC(C3)C1)C2	-2	0
O=C(c1cccs1)N1CCCC(OCc2cccc(OC(F)(F)F)c2)C1 (stereo not drawn)	-2	3
CCNc1nc(SC)nc(-n2nc(C)cc2C)n1	2	0
Cc1occc1C(=O)NCCC1CCCN(C(=O)OC(C)(C)C)C1 (stereo not drawn)	2	1
Cc1noc(C)c1CNC(=O)N1CCCCC1c1cccn1C (stereo not drawn)	1	-1
Cn1nnc2c(SCC(=O)NC3CC3)ncnc21	0	9
COc1ccc2c(c1)N(CCN1CCCC1=O)CC(C)O2 (stereo not drawn)	7	2
O=C(/C=C/c1cccc(C(F)(F)F)c1)Nc1cc(-c2onc3c2CCCC3)ccc1Cl	18	27
COC(=O)c1[nH]ncc1CN1CCN(C(=O)c2ccc(OC)cc2)CC1	10	7
OC(CN1CCOCC1)CN(CC1CCOC1)C1CC1 (stereo not drawn)	4	6
COC(=O)c1ccc(CSc2nnc(C3(c4ccc(Cl)cc4)CCC3)o2)o1	-8	-14
O=S(=O)(NCc1nnnn1-c1ccc(F)cc1)c1cccc(C(F)(F)F)c1	6	4
CCCCN(CC)C(=O)c1cc2c(=O)n3ccccc3nc2n1C	0	-1
O=C(CSc1nc(=O)n(CC2CCCO2)c2c1CCC2)N1CCN(c2ccccc2)CC1 (stereo not drawn)	-5	-11
CC(C(=O)N(C)Cc1cn[nH]c1-c1ccc(F)cc1)N1CCCC1=O (stereo not drawn)	18	7
COc1ccc(Cc2noc(CN3CCCC(OCc4ccccn4)C3)n2)cc1OC (stereo not drawn)	22	12
Cc1nn(CC(=O)c2ccc[nH]2)c(C)c1[N+](=O)[O-]	10	7
C=C(C)CNc1ccc(C(=O)N(CC)Cc2nccn2C)cn1	2	-4
OCCC1CN(Cc2cccc(O)c2)CCN1CC1CCCCC1 (stereo not drawn)	-18	-23
Cc1ccnc2nc(C(=O)OCC(=O)N(C3CC3)C3CCS(=O)(=O)C3)nn12 (stereo not drawn)	7	8
CCS[C@H]1CCN2C(=O)C(C)(C)NC(=O)[C@H]12	-10	-20
Cc1cnc(Cn2cnc3c(C)cccc3c2=O)[nH]1	10	7
O=C(c1cccc2[nH]c(-c3ccc(O)cc3)nc12)N1CCN(CCc2ccccc2)CC1	-2	-2
CCC(C)(C#N)NC(=O)Cc1cn2cccc(C)c2n1 (stereo not drawn)	-7	-6
O=C(O)Cc1ccc2sc(-c3ccccc3)nc2c1	-1	0
CN(C)S(=O)(=O)c1ccc2c3c(cccc13)C(=O)N2	-5	-4
CC(=O)CCCCC(=O)N1CCC2(CCc3ccccc32)CC1	7	6
O=C(Cn1ccnc1)c1ccccc1	16	6
